miR-21 reporter – qHTS Assay for Modulators of miRNAs and/orActivators of miR-21; Potency, µM (titrated, usually from 38.3 µM), inactives show at the highest dose reporter change, positive = more light; HeLa miR-21 FLuc reporter, luciferase, 48 h; 340,000 tested, under 10 active; active = well fitted rising curve with a large enough effect; inconclusive = small, poorly fitted or top-dose-only effect; inactive = no such curve, though single readings can be large or run the other way;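 also: % of control where 0% means no effect; miR-21 action dims this reporter so a rising signal means less miR-21 action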
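HeLa cells endogenously expressing miR-21, stably carrying CMV-driven firefly luciferase with a downstream miR-21 binding site, 2000 cells/well. Titrations up to approximately 40 uM, 48 hours; luciferase luminescence read.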
Rango dissoc inh – qHTS Assay for Inhibitors of RanGTP induced Rango (Ran-regulated importin-beta cargo) - Importin beta complex dissociation; Snurportin-1 (Homo sapiens) + GTP-binding nuclear protein Ran (Homo sapiens) + Importin …; Biochemical FRET Rango-importin beta, RanGTP-induced dissociation; Potency, µM (series often up to 46.1 µM), for the others: top-dose activity change, negative = inhibition; 340,000 compounds, 0.071% hits; AID 540253, 2011; active means falling FRET ratio curve, often poorly fitted, with flat reads before Ran was added; inconclusive means other falling curves, or compound fluorescence or quenching; inactive means flat or rising ratio curve;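 also: potency is read from the fitted curve at half-maximal effect; % of control where 0% means no effect; nearly all actives have a fitted effect of over 45% in size; -100% = wells without RanGTP and RCC1; the record marks most hits as doubtful in a second field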
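Recombinant Rango FRET biosensor (EYFP–snurportin 1 IBB–cerulean CFP10) at 0.1 uM premixed with 0.25 uM importin beta in PBS, 1 mM DTT, 0.02% Tween-20, 0.1% BSA. Compound added 5 min; RanGTP-RCC1 (0.6 uM Ran, 2 mM GTP, 0.2 uM RCC1) then triggers release, read at 45 min.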
Rango complex inh – qHTS Assay for Inhibitors of Rango (Ran-regulated importin-beta cargo) - Importin beta complex formation. Importin subunit beta-1 (Homo sapiens), Q14974. Rango CFP/YFP FRET sensor + importin beta, 45 min. Potency, µM (series often up to 92.2 µM), for the others: top-dose inhibition of complex formation. 340,000 compounds, 0.031% hits. AID 540263, 2011; active = rising FRET ratio curve, often small or poorly fitted; inconclusive = mostly compound fluorescence or quenching in the first reads; inactive = flat curves in all reads;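 also: potency is read from the fitted curve at half-maximal effect; 0% = DMSO wells and 100% = buffer wells lacking importin beta; nearly all actives have a fitted effect of over 15% in size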
Target sequence (Q14974 whole entry, looked up): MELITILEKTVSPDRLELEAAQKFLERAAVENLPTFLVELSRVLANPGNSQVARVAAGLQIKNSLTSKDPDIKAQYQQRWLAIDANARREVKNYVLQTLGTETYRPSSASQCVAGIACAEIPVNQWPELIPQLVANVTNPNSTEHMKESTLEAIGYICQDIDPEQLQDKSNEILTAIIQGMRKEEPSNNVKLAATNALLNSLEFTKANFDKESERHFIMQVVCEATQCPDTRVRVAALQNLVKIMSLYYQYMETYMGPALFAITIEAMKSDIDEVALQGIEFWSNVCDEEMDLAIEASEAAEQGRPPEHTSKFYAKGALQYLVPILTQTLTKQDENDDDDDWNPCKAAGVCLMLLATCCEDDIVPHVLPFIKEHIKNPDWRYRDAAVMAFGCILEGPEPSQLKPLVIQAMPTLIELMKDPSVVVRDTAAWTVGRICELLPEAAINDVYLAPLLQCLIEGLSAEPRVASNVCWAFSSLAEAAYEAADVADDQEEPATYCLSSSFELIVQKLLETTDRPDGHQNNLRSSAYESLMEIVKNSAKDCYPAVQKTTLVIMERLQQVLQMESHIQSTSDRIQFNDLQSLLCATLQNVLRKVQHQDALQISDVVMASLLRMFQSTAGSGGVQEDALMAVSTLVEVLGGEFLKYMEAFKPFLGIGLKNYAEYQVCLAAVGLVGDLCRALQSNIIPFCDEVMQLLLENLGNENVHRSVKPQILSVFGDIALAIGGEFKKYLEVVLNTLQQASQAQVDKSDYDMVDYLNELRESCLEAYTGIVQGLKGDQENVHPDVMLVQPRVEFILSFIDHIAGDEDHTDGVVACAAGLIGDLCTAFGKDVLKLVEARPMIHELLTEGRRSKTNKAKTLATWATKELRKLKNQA
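Inhibition scored from the CFP 486 nm/YFP 530 nm FRET ratio 45 min after adding 0.125 microM importin beta to 50 nM Rango biosensor preincubated 5 min with compound (room temperature, PBS with DTT, Tween-20, BSA). No-importin wells as positive control.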
GLA inh pH 4.5 – qHTS Assay for Inhibitors of Human alpha-Galactosidase at pH 4.5. 230,000 tested, under 10 active. Alpha-galactosidase A (Homo sapiens), P06280. purified enzyme, 4-MU-alpha-Gal fluorescence, pH 4.5. AID 1467, 2008. activity change, negative = inhibition, % at 105 µM; inconclusive = small, poorly fitted or top-dose-only inhibition, or a rising curve; inactive = flat fitted curve, though single readings scatter; no compound was filed as active;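 also: 0% = full activity with enzyme and -100% = basal without enzyme; dose as in the result columns while the protocol names 77 µM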
An asterisk follows results filed as active; u = inconclusive; x = not tested or not shown; & = joins results of further samples; [ ] = remark or other dose.

1: COC(=O)c1sccc1NC(=O)c1ccc(C)cc1
2: Cc1ccc(-c2nn3nnnc3c3ccccc23)cc1C
3: COC(=O)c1c(C(=O)OC)c(-c2ccc(C)cc2)n2c1CS(=O)C2 (centres undefined)
4: COc1ccccc1N1CCN(CCCN2C(=O)C3CCCCN3C2=O)CC1 (centres undefined)
5: O=C(Nc1cccc(S(=O)(=O)N2CCOCC2)c1)c1ccccc1[N+](=O)[O-]
6: CCOC(=O)Cc1csc(NC(=O)c2c(-c3c(Cl)cccc3Cl)noc2C)n1
7: O=C(N/N=C\c1ccc(COc2ccc([N+](=O)[O-])cc2)o1)c1ccc(Cl)cc1
8: Cc1cc(N2CCC(C)CC2)nc(-n2nc(C)cc2C)n1
9: Nc1cc(-c2ccccc2)nn1Cc1ccccc1
10: CN(C)S(=O)(=O)c1ccc(C(=O)NCc2nnc(SCC(=O)N3CCCC3)o2)cc1

assay / compound	1	2	3	4	5	6	7	8	9	10
miR-21 reporter	-1%	-1%	-2%	x	x	-10%	0%	23%	-3%	2%
Rango dissoc inh	6%	-1%	2%	-9%	-10%	u	-5%	31%	-14%	16%
Rango complex inh	-0.1%	0.4%	5.9%	0.5%	-0.3%	u	-5.7%	-3.7%	-0.2%	4.8%
GLA inh pH 4.5	x	-4	4	x	x	2	-2	2	5	x

11: CC(C)CNC(=O)C1CCCN(C(=O)NCc2ccccc2)C1 (centres undefined)
12: CCN(CC)CCCNc1nc2cc(OC)c(OC)cc2c2nc(-c3cccnc3)nn12
13: CC1(C)Cc2cccc(OCC(=O)NCc3ccccc3F)c2O1
14: O=c1c2ccccc2sn1-c1ccccc1
15: O=C(O)c1cc(-c2c[nH]c3ccccc23)nc2cc3ccccc3cc12
16: COC(=O)c1ccc(CN2CCC(CO)(Cc3cccc(OC)c3)CC2)cc1
17: O=C(COc1cccc(-n2cnnn2)c1)Nc1ccccc1
18: CCOC(=O)c1cn(CC(=O)Nc2ccc(C)cc2)nn1
19: S=C1CSc2ccccc2N1
20: CC(=O)c1c(C)[nH]c(C(=O)O)c1C

assay / compound	11	12	13	14	15	16	17	18	19	20
miR-21 reporter	0%	1%	x	u	-30%	0%	-12%	-5%	-15%	2%
Rango dissoc inh	-13%	-1%	5%	4%	x	u	-10%	1%	4%	11%
Rango complex inh	1.3%	2.2%	-0.9%	0.6%	x	u	1.0%	2.0%	2.8%	5.9%
GLA inh pH 4.5	-11	0	x	4	5	-2	-7	-2	2	-3

Reprinted: compounds 1 to 4
1: COC(=O)c1sccc1NC(=O)c1ccc(C)cc1
2: Cc1ccc(-c2nn3nnnc3c3ccccc23)cc1C
3: COC(=O)c1c(C(=O)OC)c(-c2ccc(C)cc2)n2c1CS(=O)C2 (centres undefined)
4: COc1ccccc1N1CCN(CCCN2C(=O)C3CCCCN3C2=O)CC1 (centres undefined)

assay / compound	1	2	3	4
miR-21 reporter	-1%	-1%	-2%	x
Rango dissoc inh	6%	-1%	2%	-9%
Rango complex inh	-0.1%	0.4%	5.9%	0.5%
GLA inh pH 4.5	x	-4	4	x

Further results.
21: O=C(CNC(=O)c1ccccc1)Nc1cccc(C(F)(F)F)c1
22: CN(c1ccc([N+](=O)[O-])cc1C(N)=O)C1CCCCC1
23: CCN1CCCC1CNC(=O)CN1C(=O)COc2ccc(C)cc21 (centres undefined)
24: C[C@@H](C(=O)NCc1ccccc1)N1C(=O)C2CC=CCC2C1=O (some centres undefined)
25: COc1cc(S(=O)(=O)N2CCN(c3ccccc3)CC2)ccc1F
26: COc1ccc(N(C(=O)c2snc(C(N)=O)c2N)C(C(=O)NCc2ccccc2)c2ccc(O)cc2)cc1 (centres undefined)
27: CN(Cc1ccccc1)CC(O)COc1ccc(CNCc2cc3ccccc3s2)cc1 (centres undefined)
28: O=C(Nc1ccc(NC(=O)c2ccccc2F)cn1)c1ccco1
29: CCCCC(c1nnnn1C1CCCC1)N1CCN(C(=O)c2ccco2)CC1 (centres undefined)
30: CCCCC(=O)Nc1cccc(C(C)O)c1 (centres undefined)

assay / compound	21	22	23	24	25	26	27	28	29	30
miR-21 reporter	-7%	3%	-3%	6%	2%	0%	11%	8%	0%	-6%
Rango dissoc inh	1%	6%	-15%	4%	-10%	-4%	-19%	8%	-10%	x
Rango complex inh	2.8%	-4.0%	-4.7%	0.4%	-4.0%	4.4%	2.5%	0.3%	1.9%	x
GLA inh pH 4.5	-14	1	3	15	7	x	x	x	-1	-13

31: Nc1nncn1C(=O)CCc1ccccc1
32: CC1(C)CC2CC(C)(CN2S(=O)(=O)c2cccc(N)c2)C1 (centres undefined)
33: Cc1sc2ccccc2[n+]1CC(=O)O
34: CCN(CC)C(=O)c1nc[nH]c1C(=O)N1CCC(C)CC1
35: COc1cc(/C=C/c2ccc3c([N+](=O)[O-])cccc3n2)ccc1OCC(=O)O
36: Cc1sc2ncn(CC(=O)NCc3ccccn3)c(=O)c2c1S(=O)(=O)N1CCOCC1
37: CCOc1ccccc1NC1=C(Cl)C(=O)N(c2ccccc2)C1=O
38: O=C(NCCCN1CCOCC1)c1ccc2c(c1)N(Cc1cccc(F)c1)C(=O)c1ccccc1S2
39: C#CCOCCOCCOCCNc1nc(N2CCN(C(=O)[C@H](C)n3cc(CCCN=C(N)N)nn3)CC2)nc(N2CCN(C(=O)[C@H](Cc3ccc(O)cc3)n3cc(CCO)nn3)CC2)n1
40: O=C(Oc1ccccc1C(=S)N1CCOCC1)c1cccc([N+](=O)[O-])c1

assay / compound	31	32	33	34	35	36	37	38	39	40
miR-21 reporter	8%	-4%	-5%	x	-3%	-3%	-2%	3%	-1%	0%
Rango dissoc inh	10%	21%	2%	-16%	12%	-6%	-5%	1%	x	2%
Rango complex inh	-0.4%	5.2%	u	0.6%	u	0.3%	4.9%	-1.8%	x	-0.7%
GLA inh pH 4.5	-9	0	1	x	-9	-15	-1	x	-6	x

41: Cc1cc(Cl)ccc1OCC(=O)NCCOc1nc(N2CCOCC2)nc(N2CCOCC2)n1
42: CC(C)OC(=O)/C(C#N)=C/c1cn(Cc2ccccc2)c2ccccc12
43: NS(=O)(=O)c1ccc2nc(NC(=O)C3CCCO3)sc2c1 (centres undefined)
44: COC(=O)C1=NN(C(=O)c2cccc(Br)c2)C(O)(c2ccc(Cl)cc2)C1 (centres undefined)
45: COc1ccc(CNC(=O)CCC(=O)Nc2nnc(CC(C)C)s2)cc1
46: COc1ccccc1-c1nnc(SCC(=O)NCc2ccco2)n1N
47: COc1ccc(C(=O)NCC(c2ccc3c(c2)OCO3)N2CCN(c3ccc(OC)cc3)CC2)cc1 (centres undefined)
48: O=C(c1ccc(CS(=O)(=O)Cc2ccccc2)cc1)N1CCCCC1
49: COc1ccccc1CCC(=O)OCC(=O)Nc1cccc(S(=O)(=O)N2CCOCC2)c1
50: COc1ccc(S(=O)(=O)N2CCN(c3nc(C)cc(C)n3)CC2)cc1

assay / compound	41	42	43	44	45	46	47	48	49	50
miR-21 reporter	-3%	-13%	-19%	-4%	-1%	7%	x	7%	x	2%
Rango dissoc inh	7%	u	1%	7%	13%	14%	16%	27%	-9%	-1%
Rango complex inh	-0.1%	u	4.8%	4.6%	-0.2%	0.8%	0.3%	2.1%	-0.3%	-0.6%
GLA inh pH 4.5	1	-19	-6	-2	-3	9	x	x	x	x

Full records, looked up by structure. Screens in order: miR-21 reporter	Rango dissoc inh	Rango complex inh	GLA inh pH 4.5
COc1ccc(C(=O)NCC(c2ccc3c(c2)OCO3)N2CCN(c3ccc(OC)cc3)CC2)cc1 (centres undefined) reads x	16%	0.3%	x
NS(=O)(=O)c1ccc2nc(NC(=O)C3CCCO3)sc2c1 (centres undefined) reads -19%	1%	4.8%	-6
O=C(c1ccc(CS(=O)(=O)Cc2ccccc2)cc1)N1CCCCC1 reads 7%	27%	2.1%	x

(further entries)
51: CC(c1nnc(SCC(=O)N(C)C2CCS(=O)(=O)C2)n1-c1ccccc1)N(C)C (centres undefined)
52: Cc1ccc(C)c(S(=O)(=O)N2CCCOC2CNC(=O)C(=O)NCc2ccccn2)c1 (centres undefined)
53: C=CCc1c(C)nc2c(C(=O)O)cnn2c1C
54: CSc1cccc(NS(=O)(=O)c2cccs2)c1
55: Cc1cc(N)n2nc(-c3ccccc3)c(-c3ccccc3)c2n1
56: Cc1cc(NCCNC2=CC(=O)CCC2)nc2ccccc12
57: CC(C)NS(=O)(=O)c1ccc(OCC(N)=O)c(Cl)c1
58: Cc1ccc(C)c(OCc2cc(C(=O)NC(C)c3cnn(C)c3)no2)c1 (centres undefined)
59: CCC(=O)NC(C)c1nc2ccccc2n1C (centres undefined)
60: CCCn1c(N)c(N(CCOC)C(=O)CSc2cc(C)c3cccc(C)c3n2)c(=O)[nH]c1=O

assay / compound	51	52	53	54	55	56	57	58	59	60
miR-21 reporter	x	-1%	-4%	-13%	0%	-5%	0%	-5%	-2%	x
Rango dissoc inh	-8%	-9%	-6%	5%	-6%	3%	1%	14%	18%	-14%
Rango complex inh	-1.2%	-1.6%	0.3%	-2.4%	7.1%	-1.7%	-1.2%	3.3%	u	-1.6%
GLA inh pH 4.5	x	x	6	2	x	10	2	x	-10	x

61: Cc1ccc(OCc2nc(C#N)c(NCc3ccc4c(c3)OCO4)o2)cc1
62: O=C(CCCn1c(=O)c2ccccc2n(CC(=O)N2CCN(c3ccccc3)CC2)c1=O)NCc1ccco1
63: COc1ccc(C(CC(=O)Nc2ncccc2C)N2Cc3ccccc3C2=O)cc1OC (centres undefined)
64: CC(C)CC(=O)NC(=S)Nc1ccccc1C(=O)Nc1ccccc1
65: O=C(CC1CC2CCC1C2)OCC(=O)c1c[nH]c2ccccc12 (centres undefined)
66: CCCCOc1ccc(C(=O)NCCCC(=O)N2CCCCC2)cc1
67: COc1ccc(C)cc1NCc1ccc([N+](=O)[O-])cc1
68: CS(=O)(=O)N(CC(=O)NCCSCc1ccccc1)c1ccc2c(c1)OCO2
69: COc1ccccc1NC(=S)NCC1CCCO1 (centres undefined)
70: Cc1nn(CCCC(=O)NC2CCC(C)CC2)c(=O)c2nn(-c3ccccc3)c(C)c12 (centres undefined)
71: O=[N+]([O-])c1cncc([N+](=O)[O-])c1Nc1cccc(O)c1
72: CC1CCCCC1NC(=O)COc1ccc(-n2cnnn2)cc1 (centres undefined)

assay / compound	61	62	63	64	65	66	67	68	69	70	71	72
miR-21 reporter	-9%	1%	-1%&-3%	-11%	-25%	-8%	-7%	2%	-1%	3%	u	-13%
Rango dissoc inh	-11%	2%	1%	-1%	-2%	-7%	1%	4%	0%	-12%	9%	-4%
Rango complex inh	-0.1%	1.3%	0.3%	3.5%	1.6%	1.6%	1.0%	2.6%	4.6%	u	2.2%	8.8%
GLA inh pH 4.5	-6	8[21.1 µM]	x	-5	0	-6	x	2	0	x	x	0

Assay outcomes: PubChem BioAssay, National Center for Advancing Translational Sciences (NCATS)

An excerpt (hit frequency here may not be typical).
